Compound activity: PubChem, ICCB-Longwood Screening Facility, Harvard Medical School
Anaer choline gr: blocks anaerobic gram-negative growth on choline; Gram-negative bacterium anaerobic choline minimal medium, absorbance growth; stronger effect = lower value; many inactives read as strong as hits in the columns shown; calls only; 55,000 tested, 0.2% active; AID 1963822;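 active = growth z-score on choline under -2 at 7 or 20 h with little or no fall on glycerol, limits in tiers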;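 also: stock transfer was 300 nL into about 50 µL; the organism is E. coli; final concentration not given here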
Anaer choline gr early: recorded beside Anaer choline gr, whose call it bears; z-score; measured here: choline growth z-score, timepoint 1;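 score of optical density at 7 h as mean of two plates; lower means less growth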
An asterisk follows results filed as active; i = inactive; & = joins results of further samples.

Sequence of screens: Anaer choline gr early, Anaer choline gr
CCc1ccc(-c2nc3ccccn3c2CNCc2cccc(OC)c2)cc1
  0.16, i
CN/C(=C\[N+](=O)[O-])NCCSCc1ccc(CN(C)C)o1
  0.42, i
O=C(c1nc(C2CC2)nc2c1OCCO2)N1CCCC1c1cccnc1 (stereo not given)
  0.74, i
COc1cc(OC)cc(C(=O)NCCc2csc(-c3ccc(F)cc3)n2)c1
  0.3, i
O=C(c1cc2n(n1)CCCN(Cc1ccccc1)C2=O)N1CCN(C2CCCCC2)CC1
  -0.09, i
O=C(c1cnc(N2CCCCC2)c2ccccc12)N1CCCc2ccccc21
  0.46, i
CCC(C)Sc1nc2c(cnn2-c2ccc(F)cc2)c(=O)[nH]1 (stereo not given)
  0.67, i
O=C(NC1CCCC1)C1CC(=O)N(c2ccc3c(c2)CCN3C(=O)C2CC2)C1 (stereo not given)
  -1.1, i
Cc1ccc(F)cc1NC(=O)c1c(O)c2ccccc2[nH]c1=O
  -0.84, i
CCOC(=O)c1cccc(NC(=O)NCc2c(C)nn(C)c2C)c1
  -0.27, i
COCCn1c(CN2CCN(S(=O)(=O)c3ccc(OC)cc3)CC2)nc2ccccc2c1=O
  0.47, i
CCc1cc(C(=O)Nc2ccc(F)cc2F)no1
  0.65, i
COc1ccccc1-c1cc(C(=O)N2CCN(c3cc(=O)n(C)c(=O)n3C)CC2)[nH]n1
  3.8, i
COC(=O)C1=C(c2ccccc2)c2cc(Cl)ccc2S(=O)(=O)N1CC(=O)N1CCCCC1
  -0.21, i
CNc1oc(-c2ccc(F)cc2)nc1S(=O)(=O)c1ccc(F)cc1
  0.43, i
COC(=O)c1c(C)[nH]c(C(=O)N2CCC(CC(=O)NCc3ccc4c(c3)OCO4)CC2)c1C
  -1.6, i
Cc1ccc(C)c(Nc2c3c(nc4nc(C)nn24)CCCC3)c1
  0.11, i
COCCNC(=O)c1cnc2c(C)cccn2c1=O
  0.82, i
CCCN1CN=C(NS(=O)(=O)c2ccc(C)cc2)NC1
  -0.3, i
O=c1cc(-c2ccccc2)nc2n1CCN2CCCN1CCOCC1
  -0.06, i
Cc1cccc(C)c1NC(=O)CSc1nc2c(c(=O)[nH]1)CN(Cc1ccccc1)CC2
  -0.42, i
Cc1ccc(Cn2c(=O)c3ccc(C(=O)NC(C)C)cc3n3c(=O)n(CC(=O)NC(C)(C)C)nc23)cc1
  0.4, i
Cc1cccc(CNC(=O)C2CCCN(c3ccc4cc(S(=O)(=O)N5CCCC5)ccc4n3)C2)c1 (stereo not given)
  0.95, i
O=C(NCCCN1CCCCC1)C1CCCN(c2ccc(-c3ccc(F)cc3)nn2)C1 (stereo not given)
  -0.88, i
COc1cccc(NC(=O)C2CCCN(S(=O)(=O)c3cc(-c4noc(C)n4)sc3C)C2)c1 (stereo not given)
  0.05, i
Cc1nn(-c2ccc3nnc(C)n3n2)c(C)c1CCC(=O)NCCN1CCOCC1
  0.03, i
NC1=NC(c2ccccc2)n2c(nc(=O)c3ccccc32)N1 (stereo not given)
  -0.32, i
Cc1ccc2[nH]c(=O)c3cc(C(=O)N4CCC(Cc5ccccc5)CC4)sc3c2c1
  1.4, i
CCOc1ccc(NC(=O)c2oc3ccc(CC)cc3c2C)c2cccnc12
  0.48, i
CCCCN(C)C(=O)C1CCN(C(=O)c2cccnc2-c2ccccc2C)CC1
  0.04, i
CCCCCNC(=O)c1sc(COc2cccc(C)c2)nc1C
  1.8, i
CC(C)(NC(=O)C1CCC1)c1nc2c(c(C(N)=O)n1)OCCO2
  0.3, i
CCC(=O)Nc1cccc(-c2noc(C3CCCN(C(=O)c4cc(C)cc(C)c4)C3)n2)c1 (stereo not given)
  0.74, i
COc1ccc(-c2nn(C)c3sc(C(=O)N(C)C4CCCCC4)cc23)cc1OC
  0.65, i
CC(C)c1cc(C2CCCN2Cc2cc(Br)ccc2F)on1 (stereo not given)
  -0.88, i
CC1Oc2ccc(S(=O)(=O)N3CCN(C(=O)Nc4ccccc4Cl)CC3)cc2NC1=O (stereo not given)
  -1, i
CC(C)NCC(O)c1cc(O)cc(O)c1 (stereo not given)
  0.39&0.19, i
COc1ccc(N2CCN(S(=O)(=O)c3ccc(-c4cnc(C5CC5)o4)s3)CC2)cc1
  -0.41, i
CCOC(=O)c1sc(NC(=O)c2csnn2)c(C(=O)OCC)c1C
  0.92, i
CCCCN(C)c1ccc(NC(=O)C2CC2)c(C(=O)O)c1
  -1.5, i
CCS(=O)(=O)NCc1cccn1Cc1ccccc1
  0.01, i
O=c1c2sccc2n2c(SCc3ccc(F)cc3Cl)nnc2n1CC1CCCO1 (stereo not given)
  0.11, i
CC1CCN(S(=O)(=O)c2ccc3c(c2)C(C)(C)C(=O)N3CC(=O)Nc2nccs2)CC1
  1.5, i
O=C(NCc1ccco1)C1CCN(c2cncnc2N2CCOCC2)CC1
  -0.7, i
O=C1c2ccccc2C(=O)c2c(NCCc3ccc(O)cc3)ccc(NCCc3ccc(O)cc3)c21
  0.61, i
CCn1c(CN(c2ccc(F)cc2)S(C)(=O)=O)nnc1SCC(=O)N(C)c1ccccc1
  -0.68, i
Cc1nn(-c2ccc3nnc(C)n3n2)c2c1C(c1ccc(OCc3ccccc3F)cc1)CC(=O)N2 (stereo not given)
  1.3, i
Cc1cc(C2CCCN2C(=O)c2cnn3c(C(F)F)cc(-c4ccccc4)nc23)no1 (stereo not given)
  -0.02, i
O=C(CSc1nnc2c3ccccc3nc(-c3ccc(F)cc3)n12)N1CCOCC1
  -0.56, i
NCC(O)(CS(=O)(=O)O)c1ccc(Cl)cc1 (stereo not given)
  0.34&-0.14, i

Going on with the list:
Sequence of screens: Anaer choline gr early, Anaer choline gr
COC(=O)c1cnn2c(C(F)(F)F)cc(-c3ccc(OC)c(OC)c3)nc12
  -0.22, i
CC(C)[C@H](NC(=O)[C@H](CC(=O)O)NC(=O)[C@H](CCCCN)NC(=O)[C@@H](N)CCCN=C(N)N)C(=O)N[C@@H](Cc1ccc(O)cc1)C(=O)O
  -0.05, i
Cc1c(CCNC(=O)Cc2ccccc2)sc2nc(-c3ccc(F)cc3)nn12
  -1.1, i
O=C(Nc1cccc(F)c1)c1nnc(COCC(=O)N2CCN(c3ccccc3)CC2)s1
  0.45, i
CCOc1ccccc1C1C(C(=O)Nc2ccccc2OC)=C(C)Nc2c(C(=O)Nc3ccc(F)cc3)cnn21 (stereo not given)
  0.12, i
CCOC(=O)c1c(C)oc2nc(C)nc(NCC3CCCN3CC)c12 (stereo not given)
  -0.47, i
COc1ccc(I)cc1C1Nc2ccc(C)cc2[C@H]2OCC[C@@H]12 (stereo not given in full)
  1.2, i
CN1CCN(CCCN2c3ccccc3Sc3ccc(C(F)(F)F)cc32)CC1
  0.33&-0.66&-2.5&-0.29&-0.54&-0.27&-2.5, i
Cc1cc(C2CCCN2Cc2cccc(OCc3ccccc3)c2)on1 (stereo not given)
  0.07, i
Cc1cc(C)c2c(n1)SCCN2C(=O)NCCC(=O)NCCC(C)C
  1.2, i
O=S(=O)(NCc1ccc(Cl)cc1)c1cc(-c2noc(C3CC3)n2)cs1
  -0.24, i
COc1ccc(-n2nc(C(=O)Nc3ccc(F)cc3F)c(=O)n(C)c2=O)cc1
  0.64, i
CCc1nn(-c2ccccc2)c2nc(-c3ccccc3)nc(SCC(=O)Nc3cc(OC)cc(OC)c3)c12
  -0.15, i
CC(=O)N[C@@H](CSC/C=C(\C)CCC=C(C)C)C(=O)O
  0.35, i
CC(C)CCNS(=O)(=O)c1cc(-c2nc(C(C)(C)C)cs2)cs1
  0.72, i
Cc1cc(N)n(-c2ccc(C)c(C)c2)n1
  -0.19, i
COc1ccc(OC)c(CNC(=O)c2cc3c(s2)-c2c(C)nn(-c4ccccc4)c2CC3)c1
  -0.96, i
O=c1n(Cc2ccccc2F)nc2c(S(=O)(=O)N3CCc4ccccc4C3)cccn12
  0.44, i
Cc1occc1-c1nnc2sc(-c3cc(CC(C)C)[nH]n3)nn12
  -0.39, i
COc1ccc(C2CC(c3ccc(NS(C)(=O)=O)cc3)=NN2C(=O)CCC(=O)O)cc1 (stereo not given)
  -0.16, i
Cn1ncc2c(NCc3ccc(F)cc3)nc(N3CCCC3)nc21
  -0.03, i
O=C(Nc1ccc(N2CCC(c3ccccc3)C2)c(C(=O)O)c1)c1ccc(F)cc1 (stereo not given)
  0.48, i
Cc1ccc(-c2nc(Cn3nnc(-c4nc(-c5ccccc5C)no4)c3C)c(C)o2)cc1
  -0.11, i
O=C(O)c1ccc(CSc2nc3nc[nH]c3c(=O)[nH]2)cc1
  -0.42, i
CC(C)NC[C@H](O)COc1cccc2ccccc12
  -0.7&-0.21&0.12&-0.47, i
Cn1nccc1C(=O)N1CCN(c2cc(=O)n(C)c(=O)n2C)CC1
  -0.3, i
NC(=NC1C2CC3CC(C2)CC1C3)Nc1ccc(I)cc1 (stereo not given)
  -3.5, i
O=C(Nc1cccc(-c2noc(C3CCCC3)n2)c1)c1cnccn1
  0.95, i
Cc1cc2c(cc1S(=O)(=O)N1CCC(C(=O)NC3CCCCC3)CC1)OCC(=O)N2
  -0.5, i
O=S(=O)(NC1CCCCCC1)c1ccc(-c2nnc(C3CCC3)o2)s1
  -0.2, i

Record cards, from the list above. Order of screens: Anaer choline gr early | Anaer choline gr
Shown for O=C(O)c1ccc(CSc2nc3nc[nH]c3c(=O)[nH]2)cc1 : -0.42 | i
Shown for Cn1ncc2c(NCc3ccc(F)cc3)nc(N3CCCC3)nc21 : -0.03 | i

Reformatted with each value named: entries from further up.
NC(=NC1C2CC3CC(C2)CC1C3)Nc1ccc(I)cc1 (stereo not given)
  Anaer choline gr early = -3.5
  Anaer choline gr = i
O=C(Nc1cccc(-c2noc(C3CCCC3)n2)c1)c1cnccn1
  Anaer choline gr early = 0.95
  Anaer choline gr = i
Cc1cc2c(cc1S(=O)(=O)N1CCC(C(=O)NC3CCCCC3)CC1)OCC(=O)N2
  Anaer choline gr early = -0.5
  Anaer choline gr = i
O=S(=O)(NC1CCCCCC1)c1ccc(-c2nnc(C3CCC3)o2)s1
  Anaer choline gr early = -0.2
  Anaer choline gr = i

Carrying on.
Sequence of screens: Anaer choline gr early, Anaer choline gr
CN(C)CC[C@@H](c1ccc(Br)cc1)c1ccccn1
  -0.36, i
CCCS(=O)(=O)N1CCCC(c2nc(CNC(=O)C(C)C)cs2)C1 (stereo not given)
  -1.3, i
C=CCSc1c(C(C)C)cnc2c1c(=O)n(C)c(=O)n2C
  -0.1, i
CCOC(=O)CC1=CC(=O)N(Cc2cccc(Cl)c2)c2ccccc2N1
  0.31, i
CCCc1ccc(S(=O)(=O)N2CCC3(CC2)NCCN=C3NCc2ccccc2)cc1
  -1.3, i
Cc1ccc(NC(=O)C(C)C)cc1C1CCN(Cc2ccc(Oc3ccc(F)c(F)c3)cc2)CC1
  0.92, i
CCNC(=O)c1nc(N2CCOCC2)c2ccccc2n1
  -0.26, i
CCN(Cc1ccccc1)c1ncc(NS(=O)(=O)c2ccc(C3CCCCC3)cc2)cc1C(=O)O
  -0.49, i
CCOc1ccc2oc(C)c(C(=O)Nc3cc(C(=O)OC)ccc3C(=O)OC)c2c1
  0.04, i
COc1c(C)c2c(c(O)c1C/C=C(\C)CCC(=O)OCCN1CCOCC1)C(=O)OC2
  -0.75, i
CCOc1ccc(-c2csc3c(=O)n(C)cnc23)cc1OCC
  0.05, i
CCOC(=O)c1c(C)[nH]c(C(=O)N2CCC(C(C)C(=O)NCc3ccc(OC(C)C)cc3)CC2)c1C (stereo not given)
  0.77, i
Cc1cc(C)nc(N2CCC(C(N)=O)CC2)n1
  -0.97, i
Cn1cnc2c(C(=O)NC3CCCCC3)nn(-c3ccc(Cl)cc3)c2c1=O
  0.53, i
O=C(COc1ccccc1)Nc1c(-c2ccc(F)cc2)nc2ccccn12
  0.26, i
CCc1nc2nc(C)c(NC(=O)Nc3ccc4c(c3)OCCO4)c(=O)n2[nH]1
  -1.8, i
Fc1ccc(CN2CCN(Cc3c[nH]c4ccccc34)CC2)cc1
  -0.63, i
CCc1ccccc1-n1c(SCc2cccc(F)c2)nc2[nH]ncc2c1=O
  0.66, i
Cc1cccc(COc2ccc(C3CC(=O)Nc4nc(N)[nH]c(=O)c43)cc2)c1 (stereo not given)
  0.43, i
CCOc1ccc(S(=O)(=O)NCCOc2ccc(-c3ccccc3)nn2)cc1
  -0.1, i
Cc1sc(C)c(S(=O)(=O)NCc2ccc(N(C)C)cc2)c1-c1cc(C(F)(F)F)on1
  1.3, i
Cc1ccc(-c2nc(CN3CCCC(C(=O)Nc4cc(C)ccc4O)C3)no2)cc1 (stereo not given)
  -0.82, i
O=S(=O)(c1cc(-c2nnc(C3CCC3)o2)co1)N1CCc2ccccc2C1
  1.1, i
Cc1ccc(C(=O)NCc2noc(C3CCCC3)n2)cc1
  -1.2, i
CNC(=O)c1c(NC(=O)c2ccc(S(=O)(=O)N3CC(C)OC(C)C3)cc2)sc2c1CCC2 (stereo not given)
  1.3, i
Nc1c(C(=O)NCC2CC2)nsc1C(=O)O
  0, i
Cc1cccc(NC(=O)c2cccc(NC3=NC4CS(=O)(=O)CC4S3)c2)c1 (stereo not given)
  1.4, i
CCS(=O)(=O)N1CCC(n2cnc3ccc(Cl)cc3c2=O)CC1
  -0.14, i
O=c1[nH]c(SCc2cccc(F)c2)nc2c(-c3ccccc3)c[nH]c12
  1.2, i
CCOc1ccc(C2Nc3c(C)cc(C)cc3[C@H]3OCCC[C@@H]23)cc1OC (stereo not given in full)
  0.4, i
O=S(=O)(c1ccccc1)c1nc(-c2ccccc2)oc1NCC1CCCO1 (stereo not given)
  0.27, i

An excerpt (hit frequency here may not be typical).
